# Mtb H37Rv: M. tuberculosis H37Rv growth inhibitors, H37Rv strain (AID 1626); one-dose inhibition, % at 10 µM; IC50 in µM for titrated hits; 220,000 tested, 0.95% active; M. tuberculosis H37Rv growth inhibition; higher % means a stronger effect;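 active = confirmed in a dose series; inconclusive = inhibition above 80% but not taken into the dose series; inactive = below 80% or under 30% at every dose of the series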;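 also: bacteria incubated seven days before Alamar blue readout; 0% = bacteria only wells and 100% = bacteria with antibiotic wells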
# YopH inh: blocks Yersinia enterocolitica YopH tyrosine phosphatase | 140,000 tested, 0.16% active | fluorescence Ex485/Em525 | inhibition, %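 (about 10 µM by stock and volumes)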;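 active = inhibition of 50% or more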;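 also: controls were vehicle for no effect and minimum signal wells for full effect; inactives centre near -20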
# Arbovirus inh: arbovirus infection inhibition; arbovirus infection cell-based antiviral screen; inhibition, % at 10 µM; 200,000 tested, 0.37% active;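 active = inhibition from about 30%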;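 also: bluetongue infection of BSR cells; cell survival read as ATP light after 72 h; 0% = infected wells without compound and 100% = uninfected wells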
# RecA intein inh: Mtb RecA intein splicing inhibition; P9WHJ3; cell-free RecA intein splicing, fluorescence; inhibition, %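 (about 9 µM by stock and volumes)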; 290,000 tested, 0.75% active; AID 2221; in the data active = inhibition above about 30%; inconclusive = no clear call, values can overlap the other calls;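 also: 0% = vehicle wells and 100% = reference inhibitor control wells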
# Target sequence (P9WHJ3 whole entry, looked up): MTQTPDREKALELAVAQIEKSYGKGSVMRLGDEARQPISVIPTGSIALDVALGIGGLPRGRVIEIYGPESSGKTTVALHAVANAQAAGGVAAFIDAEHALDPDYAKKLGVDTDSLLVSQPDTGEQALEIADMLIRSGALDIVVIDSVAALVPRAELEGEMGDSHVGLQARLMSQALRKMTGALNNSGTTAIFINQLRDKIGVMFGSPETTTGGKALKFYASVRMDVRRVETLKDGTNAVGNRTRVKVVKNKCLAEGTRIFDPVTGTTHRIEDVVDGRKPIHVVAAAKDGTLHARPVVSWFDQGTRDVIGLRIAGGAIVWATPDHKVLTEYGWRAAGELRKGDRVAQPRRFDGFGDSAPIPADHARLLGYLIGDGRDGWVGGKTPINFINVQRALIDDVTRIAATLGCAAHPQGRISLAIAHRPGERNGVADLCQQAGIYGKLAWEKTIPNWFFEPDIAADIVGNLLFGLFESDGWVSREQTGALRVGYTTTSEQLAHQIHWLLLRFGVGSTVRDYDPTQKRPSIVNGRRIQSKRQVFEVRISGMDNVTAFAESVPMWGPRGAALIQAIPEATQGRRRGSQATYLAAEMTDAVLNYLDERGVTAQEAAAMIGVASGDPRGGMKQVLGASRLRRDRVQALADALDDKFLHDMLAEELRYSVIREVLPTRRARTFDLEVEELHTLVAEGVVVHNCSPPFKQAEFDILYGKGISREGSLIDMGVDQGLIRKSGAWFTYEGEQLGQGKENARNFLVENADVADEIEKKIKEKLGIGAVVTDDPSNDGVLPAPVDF
# Mtb betalactam: beta-lactam sensitization of Mtb H37Rv; inhibition, % at 25 µM; AID 434955; M. tuberculosis H37Rv growth with meropenem, percent inhibition; hits of this screen are not shown here; 330,000 tested, 0.27% active;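 active = about 74% or more and at least 40 points above the plate without the antibiotic, then above 30% in a dose series; inconclusive = first-round hits that could not be retested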;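 also: growth measured after seven days incubation then overnight dye step; 0% = bacteria only wells and 100% = bacteria with antibiotic; twin plates without the antibiotic show which effects depend on it; some results filed as inactive read as strong as hits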
# The depositor's hits bear a star; ? = inconclusive; / = not tested or not shown. This is a subset. The share of hits here may be higher or lower than overall.
# Value order – Mtb H37Rv	YopH inh	Arbovirus inh	RecA intein inh	Mtb betalactam
[1] COc1cccc(NC(=O)C2CCCN2C(=O)OCc2ccccc2)c1 (stereo unspecified)
→ -3%	-37	1	0.2	-3
[2] Cc1ccc(C(=O)Nc2ccccc2[N+](=O)[O-])cc1S(=O)(=O)N1CCOCC1
→ /	/	/	3.0	0
[3] Cc1ccc(C(=O)CCS(=O)(=O)c2ccc(Cl)cc2)cc1
→ /	/	/	2.6	83
[4] CCOC(=O)Cn1nc(C)c(NC(=O)COc2ccc(C)c(C)c2)c1C
→ 0%	/	/	1.5	-10
[5] COc1ccc(N2CC(C(=O)OCC(=O)Nc3cccc(C)c3)CC2=O)cc1 (stereo unspecified)
→ /	/	/	-5.8	-4
[6] COc1ccc(C(=O)NN=C(Cc2ccccc2)Cc2ccccc2)cc1OC
→ -3%	-10	0	-0.1	-1
[7] CCc1cccc(C)c1NC(=S)N1CC2CC(C1)c1cccc(=O)n1C2 (stereo unspecified)
→ 0%	-16	-4	-2.8	3
[8] COc1ccc(C[C@@H]2c3cc(O)c(OC)cc3CCN2C)cc1O
→ -7%	-35	-7	-2.2	9
[9] S=c1[nH]nc(-c2ccncc2)n1/N=C/c1cccc2ccccc12
→ -2%	-23	5	-0.9	0
[10] CCCCN(S(=O)(=O)c1ccccc1)S(=O)(=O)c1ccccc1
→ /	/	/	10	4
[11] Cc1ccc(S(=O)(=O)N2CCN(C(=O)C3CCCO3)CC2)cc1 (stereo unspecified)
→ /	/	/	0.6	-5
[12] COc1cc(OC)c(NC(=O)c2ccc3c(SCC(=O)O)c4c(nc3c2)CCCC4)cc1Cl
→ -4%	/	8	3.5	38
[13] Cc1ccc(S(=O)(=O)N2CCC(C(=O)N3CCC(C(=O)NCc4cccnc4)CC3)CC2)cc1
→ -1%	-18	-1	0.7	-7
[14] COCCC(=O)N1CCC(n2nccc2NC(=O)c2ccccc2C)CC1
→ /	/	/	0.0	7
[15] Clc1ccc(OCCn2ccnc2)c(Br)c1
→ 1%	-15	3	4.6	5
[16] CC(C)Cc1ccc(C(C)C(=O)Nc2ccccc2O)cc1 (stereo unspecified)
→ -1%	/	/	9.6	-2
[17] Oc1cc2c(cc1CN1CCN(c3cccc(C(F)(F)F)c3)CC1)CCC2
→ 73%	-196	-11	-1.7	57
[18] O=C1c2ccccc2C(=O)N1Cc1cc(-c2ccccc2)no1
→ -3%	-23	13	-2.7	-1
[19] OCC1OC(n2cnc3c(NC4CCCC4)ncnc32)C(O)C1O (stereo unspecified)
→ -3%	/	/	0.9	0
[20] CC(=O)c1ccc(-c2cccc(-c3nc4ccccn4c3NC3CCCCC3)c2)cc1
→ /	/	/	32*	98
[21] COc1ccc(NC2CCCN(C(=O)c3csc(C(C)C)n3)C2)cc1OC (stereo unspecified)
→ /	/	/	-1.3	-6
[22] CC/C(=N/O)C(=O)c1ccc(Br)cc1
→ 7%	/	20	/	11
[23] COc1ccc(C(=O)Nc2sc3c(c2C#N)CCN(C(C)=O)C3)cc1
→ 3%	/	-12	0.9	0
[24] COc1ccc(CCN(Cc2cc3ccc(C)cc3n3nnnc23)C(C)=O)cc1OC
→ 3%	/	4	0.0	-5
[25] CC(=O)N(Cc1ccco1)C1(C(=O)NC2CCCC2)CCCCC1
→ -11%	8	0	-1.0	?
[26] CCCCn1c(O)c(/C=C2\C=NN=C2c2ccccc2)sc1=S
→ 8%	-33	-5	1.4	10
[27] Cc1ccsc1C(=O)Nc1nc2ccccc2[nH]1
→ 20µM*	/	/	-1.6	88
[28] Oc1ccc(N2CCN(Cc3ccc(OCCCN4CCCCC4)cc3)CC2)cc1
→ 9%	/	-19	-5.1	-5
[29] COc1ccc2sc(N3C(=O)CC(Cc4cccc(C)c4)C3=O)nc2c1 (stereo unspecified)
→ -3%	-1	9	10	3
[30] Cc1ccc(-c2cc(C(=O)n3cnc4ccccc43)c3ccccc3n2)cc1C
→ 8%	-25	-7	10	29

# Three compounds from above, ordered by formula weight, descending.
# Value order – Mtb H37Rv	YopH inh	Arbovirus inh	RecA intein inh	Mtb betalactam
[7] CCc1cccc(C)c1NC(=S)N1CC2CC(C1)c1cccc(=O)n1C2 (stereo unspecified)
→ 0%	-16	-4	-2.8	3
[4] CCOC(=O)Cn1nc(C)c(NC(=O)COc2ccc(C)c(C)c2)c1C
→ 0%	/	/	1.5	-10
[10] CCCCN(S(=O)(=O)c1ccccc1)S(=O)(=O)c1ccccc1
→ /	/	/	10	4

# Further entries follow.
# Value order – Mtb H37Rv	YopH inh	Arbovirus inh	RecA intein inh	Mtb betalactam
[31] COc1cccc(NC(=S)/C(=C(\[O-])c2ccc([N+](=O)[O-])cc2)[n+]2ccccc2)c1
→ -2%	/	14	5.8	-9
[32] CC(C)(CO)N=Cc1c(O)[nH]c2ccccc12
→ -14%	9	5	-2.3	-1
[33] COc1ccc(CN2C=C3C(=O)C(C)(OC(=O)CCc4ccccc4)C(=O)C=C3C=C2c2ccc(C#N)cc2)cc1 (stereo unspecified)
→ 0%	/	/	-3.8	-1
[34] CCSC1=C(C#N)C(c2ccc(Cl)cc2)C2=C(CCCC2=O)N1 (stereo unspecified)
→ -7%	-36	-1	-2.9	17
[35] CCOC(=O)c1[nH]nc(C(=O)c2ccc(Br)cc2)c1O
→ 3%	-1	10	-0.3	4
[36] COc1nc(-c2ccc(C)cc2)ccc1-c1noc(-c2ccco2)n1
→ 0%	3	-9	3.8	16
[37] O=Nc1c(O)n(Cc2ccccc2)c2ccccc12
→ 2%	/	/	3.2	-5
[38] Cc1ccc(NC(=O)CSc2ncccn2)cc1F
→ 65%	/	5	-0.4	37
[39] O=C(NCc1cnn(-c2ccc(F)cc2)c1)C1CCC(=O)N(C2CC2)C1 (stereo unspecified)
→ /	/	/	-1.0	-1
[40] CCOc1ccc(NC(=O)C2CC(=O)OC2c2ccccc2)cc1 (stereo unspecified)
→ 71%	/	5	-4.7	-18
[41] CCN(CC)c1ccc(C(=S)NCc2ccccc2)cc1
→ -1%	/	-9	-3.3	1
[42] Clc1cc(NC2CCCCC2)ncn1
→ /	/	/	-2.1	-8
[43] CCOc1cc(/C=C2\COc3ccccc3C2=O)ccc1OCC(=O)N(C)C
→ /	/	/	1.4	41
[44] Cc1ccc(NC(=S)NNC(=O)Cn2nc([N+](=O)[O-])cc2C)cc1
→ -2%	-7	10	-2.4	-16
[45] O=C(O)c1nn2c(c1Br)NC(c1ccccc1)CC2C(F)(F)F (stereo unspecified)
→ 0%	-33	0	-2.5	-5
[46] CC(NC(=O)CN(c1ccc(F)cc1)S(C)(=O)=O)c1ccccc1 (stereo unspecified)
→ /	/	/	0.5	2
[47] CC(C)N1CCN(S(=O)(=O)c2ccccc2)CC1
→ /	/	/	1.2	2
[48] O=C(COC(=O)C1(c2ccc(Cl)cc2)CCCC1)NC1CCS(=O)(=O)C1 (stereo unspecified)
→ 1%	-6	8	5.8	1
[49] Cc1nn(C(C)C(=O)NCc2cccs2)c(C)c1[N+](=O)[O-] (stereo unspecified)
→ -12%	/	0	-1.4	-2
[50] CC1(C)CC(=O)c2c(O)c(-c3ccccc3)c(=O)n(-c3ccccc3)c2C1
→ 5%	-31	3	-1.8	-6
[51] Cc1ccc(S(=O)(=O)Nc2ccccc2F)cc1C(=O)OC(C)C(=O)N1CCOCC1 (stereo unspecified)
→ /	/	/	-2.2	-4
[52] COC(=O)CC1(c2ccc(OC)cc2)C(=O)c2ccccc2C1=O
→ -7%	/	/	2.1	-3
[53] COc1ccc(CCn2c(O)c(C=NCc3ccc4c(c3)OCO4)c(=O)[nH]c2=O)cc1OC
→ 4%	-8	4	/	6
[54] Cc1ccc(C2C(C(=O)c3sc(C)nc3C)=C(O)C(=O)N2CCN2CCOCC2)o1 (stereo unspecified)
→ 8%	-4	1	-2.7	-8
[55] O=S(=O)(Nc1ccc(Cl)cc1)c1cccc2nsnc12
→ /	/	/	1.9	-4
[56] CCOc1ccc(NC(=O)C(CC(=O)O)Cc2ccc(C)cc2)cc1 (stereo unspecified)
→ /	/	/	-0.8	-1
[57] COc1ccccc1NC(=O)N1CCCC1C(=O)NCCc1ccccc1 (stereo unspecified)
→ /	/	/	0.7	-17
[58] COCCn1c(=N)c(S(=O)(=O)c2ccc(F)cc2)cc2c(=O)n3cccc(C)c3nc21
→ /	/	/	-2.0	-4
[59] Cc1cc(NC(=O)COC(=O)C2CC(=O)N(c3cccc(C)c3C)C2)no1 (stereo unspecified)
→ /	/	/	-0.5	1
[60] Cc1ccnc(NC(=O)C(C)N2C(=O)c3ccccc3C2=O)c1 (stereo unspecified)
→ 1%	/	-1	-1.5	-6
[61] O=C(NCC1CCCO1)c1ccc(NC(=O)c2cccc([N+](=O)[O-])c2)cc1 (stereo unspecified)
→ /	/	/	-1.8	-6
[62] CCOc1ccc(-c2nnc(NC3=NCCCCC3)o2)cc1
→ 1%	-25	1	1.3	15
[63] CCN(CC)S(=O)(=O)c1ccc2c(c1)nc(SCC(=O)NC1CC1)n2-c1ccccc1OC
→ 1%	-5	-3	4.9	-3
[64] CCn1c(=O)c(CCC(=O)NCC2CCCO2)c(C)c2c(C)nn(-c3ccc(C)cc3)c21 (stereo unspecified)
→ /	/	/	3.8	-5
[65] CCn1c(COc2cccc(OC)c2)nnc1SCC(=O)Nc1cc(OC)ccc1OC
→ 0%	-17	6	-1.3	-6
[66] Cc1ncc([N+](=O)[O-])n1Cc1ccc(Br)cc1
→ -7%	/	-11	0.4	-6
[67] COCCN(C(=O)CSCc1ccccc1)c1c(N)n(Cc2ccccc2)c(=O)[nH]c1=O
→ /	/	/	0.1	-1
[68] Cc1cc(NC(=O)CCC(=O)N(CC(=O)NC2CCCC2)c2cccc(F)c2)no1
→ /	/	/	-2.5	-6
[69] O=C1C2C(c3ccccc3)C=CC(c3ccccc3)C2C(=O)N1c1cccnc1 (stereo unspecified)
→ 1%	-15	-3	-2.5	4
[70] COc1ccc(-c2nn[nH]n2)cc1OC
→ -7%	-9	0	1.0	-8
[71] O=C(O)C1C2CCC(O2)C1C(=O)Nc1cccc(Br)c1 (stereo unspecified)
→ /	/	/	2.1	1
[72] CN(C)CCn1c2c(c(SCC(=O)NCc3ccccc3)nc1=O)CCCC2
→ /	/	/	1.1	-5
[73] Cc1ccc(-n2c(-c3ccncc3)n[nH]c2=S)cc1
→ -10%	/	-2	-5.5	-8
[74] C=CCn1c(=NC(=O)c2ccco2)sc2cc(C(=O)OCC)ccc21
→ -6%	-29	-3	-2.1	4
[75] Cc1cccc(C(C)(C)C)c1OCCn1ccnc1
→ -11%	-26	5	-0.4	80
[76] CCN(CC)C(=O)n1nc(C)c(CN2C(=O)c3ccccc3C2=O)c1C
→ -4%	-19	/	-4.3	0
[77] O=S(=O)(NCc1ccc(F)cc1)c1ccc(-n2cnnn2)cc1
→ /	/	/	8.9	-7
[78] CC(NC(=O)C(=O)N/N=C\c1cccc([N+](=O)[O-])c1)c1ccccc1 (stereo unspecified)
→ -6%	/	4	-1.7	6
[79] COc1ccc(S(=O)(=O)N2CCCC2CNC(=O)c2cccc(OC)c2)cc1 (stereo unspecified)
→ /	/	/	0.1	-1
[80] Cc1cccc(N2CN=c3s/c(=C\c4ccncc4)c(=O)n3C2)c1
→ /	-35	1	3.1	/
[81] Cc1cc(-c2ccc(C)c(S(=O)(=O)N3CCN(c4ccc([N+](=O)[O-])cc4)CC3)c2)on1
→ /	/	/	-7.6	-1
[82] O=S1(=O)CCN(OCc2ccc(Cl)cc2)CC1
→ 2%	/	-1	/	1
[83] CC1Oc2ccccc2N(CC(=O)Nc2ccc3c(c2)OCO3)C1=O (stereo unspecified)
→ 1%	-55	1	0.6	-5
[84] COc1ccc(CCNC(=O)COC(=O)Cc2cccc3ccccc23)cc1
→ 6%	-19	1	3.4	5

# 2 of the compounds above, with one line to a screen.
75. Cc1cccc(C(C)(C)C)c1OCCn1ccnc1
73. Cc1ccc(-n2c(-c3ccncc3)n[nH]c2=S)cc1

assay / entry,75,73
Mtb H37Rv,-11%,-10%
YopH inh,-26,/
Arbovirus inh,5,-2
RecA intein inh,-0.4,-5.5
Mtb betalactam,80,-8

# Full records, looked up by structure:
# Profile of `CC(NC(=O)C(=O)N/N=C\c1cccc([N+](=O)[O-])c1)c1ccccc1` (stereo unspecified) : Mtb H37Rv = -6%; YopH inh = /; Arbovirus inh = 4; RecA intein inh = -1.7; Mtb betalactam = 6
# Profile of `O=C(NCC1CCCO1)c1ccc(NC(=O)c2cccc([N+](=O)[O-])c2)cc1` (stereo unspecified) : Mtb H37Rv = /; YopH inh = /; Arbovirus inh = /; RecA intein inh = -1.8; Mtb betalactam = -6
# Profile of `COc1ccc(S(=O)(=O)N2CCCC2CNC(=O)c2cccc(OC)c2)cc1` (stereo unspecified) : Mtb H37Rv = /; YopH inh = /; Arbovirus inh = /; RecA intein inh = 0.1; Mtb betalactam = -1
